From PubChem BioAssay
SARS PLP yeast: inhibitors of SARS-CoV papain-like protease in yeast. S. cerevisiae expressing SARS-CoV PLpro, growth rescue; control for the full effect not named in the record. Potency, µM (titrated, usually from 32.9 µM), without a hit: at the highest dose activity, positive = growth rescue. actives 0.19% (n = 330,000). AID 485353; active means well fitted rising curve with a large enough effect; inconclusive means small, poorly fitted or top-dose-only effect; inactive means no such curve, though single readings can be large or run the other way; further: 0% is about no effect; nearly all actives have a fitted effect of over 55% in size; growth read by luminescence after 48 h
Cruzain noTriton: cruzain (T. cruzi) inhibition without detergent; actives 2.3% (n = 200,000); AID 1476; Potency, µM, inactives show max response, negative = inhibition, most hits filed as inhibitors; P25779; purified cruzain, Z-FR-AMC fluorescence, no detergent;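 further: plate controls were enzyme without inhibitor for no effect and buffer without enzyme for full effect; nearly all actives have a fitted effect of over 40% in size; top concentration of the series not given in the record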
Target sequence (P25779 123-467 limits assumed): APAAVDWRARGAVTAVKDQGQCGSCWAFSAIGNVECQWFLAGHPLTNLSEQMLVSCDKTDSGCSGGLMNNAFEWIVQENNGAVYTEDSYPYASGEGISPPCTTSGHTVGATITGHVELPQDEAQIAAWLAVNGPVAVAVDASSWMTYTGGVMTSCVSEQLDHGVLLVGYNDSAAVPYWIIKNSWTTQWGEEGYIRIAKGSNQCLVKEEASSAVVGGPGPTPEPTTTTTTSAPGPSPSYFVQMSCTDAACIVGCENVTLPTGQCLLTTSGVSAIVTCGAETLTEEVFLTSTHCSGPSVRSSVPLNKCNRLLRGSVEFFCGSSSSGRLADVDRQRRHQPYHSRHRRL
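Purified cruzain at 1.5 nM, pre-incubated 15 min with compound at room temperature in 100 mM sodium acetate pH 5.5, 5 mM DTT, 0.00005% Triton X-100. Reaction started with 2 uM Z-FR-AMC; AMC fluorescence increase over 60 s gives rate.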
2A StopGo: FMDV 2A StopGo reporter, luciferase signal; actives 1.2% (n = 410,000); Potency, µM (top dose mostly 57.9 µM), for inactives: at the highest dose signal change, negative = less light; human cells with a luciferase reporter of 2A StopGo recoding; control for the full effect not named in the record; active = well fitted falling curve with a large enough effect; inconclusive = small, poorly fitted or top-dose-only effect; inactive = no such curve, though single readings can be large or run the other way; tested in HEK293T cells; further: on the % scale 0 is the no-effect control and ±100 the full control effect; nearly all actives have a fitted effect of over 45% in size; luciferase light after 4 h
NS1 inh: influenza NS1 inhibition; S. cerevisiae slowed by influenza A NS1, growth recovery by OD600; Potency, µM (series often up to 46.1 µM), for inactives: at the top dose activity, positive = more growth; actives 0.4% (n = 270,000); AID 2326; active means well fitted rising curve with a large enough effect; inconclusive means small, poorly fitted or top-dose-only effect; inactive means no such curve, though single readings can be large or run the other way; further: nearly all actives have a fitted effect of over 50% in size
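S. cerevisiae expressing influenza A NS1, grown in glucose, washed, then diluted 1:100 into pH 6.0 -URA galactose medium with 23 nl compound. Growth recovery read as OD600; NS1-free strain serves as control.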
Cruzain Triton: blocks cruzain activity in presence of Triton detergent; purified cruzain, Z-FR-AMC fluorescence, 0.01% Triton; Potency, µM, without a hit: max response, negative = inhibition, most hits filed as inhibitors; P25779; AID 1478; actives 0.43% (n = 200,000);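 further: plate controls were neutral wells for no effect and buffer without enzyme for full effect; nearly all actives have a fitted effect of over 40% in size; top concentration of the series not given in the record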
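In this qHTS format, compounds are incubated with 1.5 nM cruzain for 15 min at room temperature before 2 uM Z-FR-AMC is added. Release of AMC is followed at 360/450 nm, and progress is taken as the 60 s fluorescence difference.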
RE007 growth inh: less growth of the S. pombe RE007 Vpr strain. S. pombe RE007 Vpr strain, BacTiter-Glo ATP luminescence, 24 h; control for the full effect not named in the record. Potency, µM (highest dose often 92.2 µM), without a hit: at the highest dose activity change, negative = less growth. actives 0.21% (n = 360,000). AID 651644; active = well fitted falling curve with a large enough effect; inconclusive = small, poorly fitted or top-dose-only effect; inactive = no such curve, though single readings can be large or run the other way;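 further: on the % scale 0 is the no-effect control and ±100 the full control effect; nearly all actives have a fitted effect of over 50% in size; the assay follows cell death caused by Vpr and the record does not say whether a fall means rescue or toxicity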
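Fission yeast strain RE007, carrying one chromosomally integrated HIV-1 vpr copy, was seeded at OD 0.01 in PMG+AL medium with 23 nL pinned compound. After 24 h at 30 °C and 99% humidity, viability was read by BacTiter-Glo luminescence.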
MARV entry inh: inhibitors of Marburg virus binding or cell entry; Marburg virus pseudotyped entry inhibition, cell reporter; control for the full effect not named in the record; about a third of the inactives were read at about 46 µM; Potency, µM (doses to about 37.8 µM), for inactives: at the top dose activity change, negative = inhibition, actives largely listed as inhibitors; actives 1.8% (n = 300,000); AID 540276; active = well fitted inhibition curve with a large enough effect; inconclusive = small, poorly fitted or top-dose-only effect, or effect the other way; inactive = flat fitted curve, though single readings scatter; tested in HEK293 cells; about a fifth of its hits are not listed in these tables; further: on the % scale 0 is the no-effect control and ±100 the full control effect; luciferase read-out
Lassa entry inh: inhibitors of Lassa virus binding or cell entry. AID 540256. Potency, µM (highest dose often 37.9 µM), for the others: at the highest dose activity change, negative = inhibition, hits mostly inhibitors. Lassa virus pseudotype entry inhibition, cell reporter; control for the full effect not named in the record. actives 1.2% (n = 300,000); active means well fitted inhibition curve with a large enough effect; inconclusive means small, poorly fitted or top-dose-only effect, or effect the other way; inactive means flat fitted curve, though single readings scatter; tested in HEK293 cells; further: on the % scale 0 is the no-effect control and ±100 the full control effect; nearly all actives have a fitted effect of over 50% in size; luciferase read-out
* marks the source's active call; other numbers are inactive results; ? = inconclusive; . = not tested or not shown; & = joins results of further samples; [ ] = dose if it differs, or a comment. Unless noted, the call rests on the fitted dose curve; in most records, active means well fitted curve in the direction sought with a large enough effect; inconclusive means small, poorly fitted or top-dose-only effect, or another doubt; inactive means no such curve, though single readings can be large; an effect the other way counts as inactive or inconclusive. Potency means the concentration at half of the fitted maximal effect.

SMILES	SARS PLP yeast	Cruzain noTriton	2A StopGo	NS1 inh	Cruzain Triton	RE007 growth inh	MARV entry inh	Lassa entry inh
COc1ccccc1N1CCN(C(=O)CCS(=O)(=O)c2ccc3c(c2)oc(=O)n3C)CC1	-4%	15%	-8%&-19%	0%	0.3%	5%	-4%&-4%[46.1 µM]	23%&18%[46.1 µM]
COc1ccc(-c2cc(C(=O)N3CCN(Cc4ccccc4)CC3)no2)cc1OC	-9%	18%	3%	-14%	0.0%	-4%	3%&3%	-12%
CN(C)C(=O)Oc1ccc([N+](=O)[O-])cc1	5%	.	-6%	.	.	1%	-1%[46.1 µM]	1%
O=C(NCc1ccccc1)c1c[nH]c2ccc(S(=O)(=O)Nc3ccc4c(c3)OCCO4)cc2c1=O	0%	-29%	1%	5%	-3.8%	-2%	-1%&-1%	-19%
CCOc1ccccc1Nc1nnc(SCC(=O)Nc2cccc(S(=O)(=O)NC3=NCCCCC3)c2)s1	3%	-17%	0%	?	-6.7%	-5%	?	-28%
Cc1ccc(C(=O)O)cc1NC(=O)CSc1ncnc2sc3c(c12)CCC3	-1%	.	-12%	5%	.	2%	-3%[46.1 µM]	25%
O=C(NCc1ccc(Cl)cc1)C(=O)NCC1OCCN1S(=O)(=O)c1cc(F)ccc1F (stereo unspecified)	-2%	.	-18%	14%	.	12%	-19%	?
O=C(Nc1nncs1)c1ccccc1NS(=O)(=O)c1cccs1	1%	-8%	-14%	-6%	-15%	-13%	1%&1%	8%
CC(=O)OCCn1c(=O)c2cc3c(=O)n(CCOC(C)=O)c(=O)c3cc2c1=O	8%	5%	-14%	-2%	2.9%	3%	-7%	5%
COC(=O)c1ccc(C2CC(=O)NC3=C2C(=O)CCC3)cc1 (stereo unspecified)	1%	-8%	-10%	-6%	2.1%	-18%	4%	-2%
Cc1noc(NS(=O)(=O)c2ccc(NC(=O)c3oc4ccc(Cl)cc4c3C)cc2)c1C	-5%	.	0%	-31%	.	1%	19%	10%
Cc1ccccc1Cn1c2ccccc2c2cn[nH]c(=O)c21	6%	1%	-24%	14%	-3.0%	24%	-1%	-5%
CC(C)(C)c1csc(Sc2ncccc2[N+](=O)[O-])n1	-1%	.	14%	-3%	.	-7%	.	.
Nc1nc(Nc2ccccc2)nc2c1ncn2[C@@H]1O[C@H](CO)[C@@H](O)[C@H]1O	.	.	-17%	.	.	-8%[18.4 µM]	11%	2%
O=C(c1ccncc1)N1CCN(S(=O)(=O)c2cccc(Cl)c2)CC1	1%	.	-19%	.	.	24%	3%	-3%
COc1ccc(C(=O)Oc2c(Sc3ccc(Cl)cc3)c(C)nn2C(C)(C)C)cc1OC	.	-5%	?	.	-4.5%	.	1%[46.1 µM]	-28%[46.1 µM]
COC(=O)c1ccc(-c2nc(O)c(C)s2)cc1	-1%	.	8%	-5%	.	-25%	2%[46.1 µM]	23%[46.1 µM]
CN1CCN(S(=O)(=O)c2ccc(NC(=O)c3ccc(F)cc3)cc2)CC1	2%	-8%	0%	2%	2.7%	3%	18%	17%
Cc1ccc(S(=O)(=O)Nc2ccc3ccccc3c2)cc1	.	.	36%[activator]	.	.	-6%	-27%	-30%[46.1 µM]
O=C(NNc1nc2c(F)cccc2s1)c1cc(=O)c2ccccc2o1	2%	.	30%	-12%	.	-8%	.	.
CC1(C)CC(=O)C=C(NNC(=O)c2cccnc2)C1	0%	.	-12%	8%	.	13%	?	-16%
COC(=O)c1c(NC(=O)C(C)Oc2ccc(Cl)cc2Cl)sc2c1CCCC2 (stereo unspecified)	.	-1%	-4%	.	-1.8%	.	.	1%[46.1 µM]
CC(C)OCCCNC(=O)c1nn(C)c2c1CSc1ccccc1-2	.	9%	20%	.	-4.0%	.	12%[46.1 µM]	21%[46.1 µM]
N#Cc1ccc(C(=O)Nc2nc(-c3cccs3)c(C(=O)C(F)(F)F)s2)cc1	-7%	-1%	?	-31%	-6.7%	3%	4%	-23%
Cc1ccc(S(=O)(=O)N(C#N)c2nc(C)cc(C)n2)cc1	3%	-11%	1%	6%	-3.0%	2%	-20%	11%
O=c1cnnc(Nc2ccc(Cl)c(C(F)(F)F)c2)[nH]1	0%	.	1%	.	.	-3%	3%[46.1 µM]	10%[46.1 µM]
CCSc1nc(C)nc2c1oc1ccccc12	-1%	?	-16%	-40%	-1.8%	-8%	-25%	1%
CC1CCCCC1NCC(=O)NCc1ccc(F)cc1 (stereo unspecified)	1%	.	-19%	.	.	5%	?	0%
CN(C)S(=O)(=O)N1CCC(n2c(C(F)(F)F)nc3cccnc32)CC1	.	6%	-9%	.	1.6%	.	.	8%[46.1 µM]
COC(=O)[C@]12C(=O)C(C)=C(O)[C@@]1(C)C(C)=CC1[C@@]34CC[C@@H](OC(C)=O)C(C)(C)C3C(C[C@]12C)OC4=O (stereo partly specified)	0%	.	-20%	6%	.	-6%	.	.
CCc1nc(NCCC(C)C)c(C#N)c2c1CCCC2	13%	-4%	-25%	-4%	-5.8%	5%	1%	2%
CNC(=O)C(=O)NCC(c1cccs1)S(=O)(=O)c1ccc(F)cc1 (stereo unspecified)	-1%	.	-4%	-12%	.	2%	0%[46.1 µM]	12%[46.1 µM]
CNS(=O)(=O)c1cc(OC)c(OC)cc1CC(=O)OC	0%	.	35%[activator]	11%	.	1%	24%[46.1 µM]	-10%[46.1 µM]
COc1ccc(C(C(=O)NC2CCCC2)N(C(=O)c2ccco2)c2ccccc2OC)cc1 (stereo unspecified)	0%	.	1%	1%	.	33%	?	?
O=C(OCc1nnc(-c2ccccc2)o1)c1cc(S(=O)(=O)N2CCOCC2)ccc1F	-7%	.	-8%	.	.	2%	0%	15%
Nc1nc(Cl)cc(N2CCC(c3cc(-c4ccc(Cl)cc4)n[nH]3)CC2)n1	-25%	-10%	16µM*	-87%	-4.6%	10%	?	6.5µM*
Cc1sc(NC(=S)Nc2ccc(F)cc2)c(C(N)=O)c1C	-2%	.	19%	0%	.	6%	-1%[46.1 µM]	-17%
NC1=NCc2ccccc21	8%	-3%	.	-3%	1.3%	-2%	2%	2%
Cc1sc2nc(CSCC(=O)N(C)CC(=O)Nc3ccc(F)cc3)[nH]c(=O)c2c1C	3%	.	-12%	.	.	-13%	-18%	-15%
COc1ccc(CC(=O)NCc2ccccc2Cl)cc1S(=O)(=O)N1CCOCC1	1%	-3%	-16%	-5%	-5.2%	4%	6%	0%
Nc1ccc(N=Nc2ccccc2O)c(N)c1	.	.	37%[activator]	.	.	-10%	14%	-5%
O=C(CSc1nc(-c2ccccc2)cc(C(F)(F)F)n1)NCc1cccs1	-3%	0%	-20%	3%	-5.8%	19%	?	?
CC(C)NS(=O)(=O)c1ccc(OCC(=O)N2CCN(Cc3ccccc3)CC2)c(Cl)c1	3%	-10%	?	-21%	3.4%	-8%	8%&8%	-2%
CCCCC(=O)N1CCN(c2nc3ccc(Br)cc3s2)CC1	-13%	.	-12%	-21%	.	-18%	0%[46.1 µM]	?
O=C(N/N=C/c1ccc(O)cc1)c1ccncc1	20%	.	10%	12%	.	14%	27%	-2%
CCN(CC)c1ccc(S(=O)(=O)N2CCOCC2)cc1NC(=O)CSc1ccccc1	-10%	.	-7%	.	.	10%	-27%	-21%
O=C(Cc1ccccc1)N(Cc1cccnc1)c1nc2ccc(F)cc2s1	.	-4%	-3%	.	-9.3%	.	.	-12%[46.1 µM]
Cc1cc(NC(=O)COC(=O)[C@H](Cc2ccccc2)NC(=O)c2ccco2)no1	.	.	5%	.	.	5%	-9%[46.1 µM]	16%[46.1 µM]
CCN(CC)S(=O)(=O)c1cccc(C(=O)Nc2ccccc2C(=O)N2CCOCC2)c1	7%	9%	-7%	1%	7.1%	20%	-2%	-7%
CN(C(=O)COC(=O)c1ccccc1Nc1ccccc1)c1c(N)n(Cc2ccccc2)c(=O)[nH]c1=O	0%	.	-29%	.	.	5%	?	?
CC(C(=O)N1CCC(C(N)=O)CC1)N(c1ccc(Oc2ccccc2)cc1)S(C)(=O)=O (stereo unspecified)	-3%	?	?	5%	2.3%	-12%	-1%	-14%
CCOc1ccc(NC(=O)C2CCN(C(=O)NCc3ccccc3)CC2)cc1	5%	-4%	6%	2%	0.9%	-12%	?	-23%
COc1ccc(NC(=O)COC(=O)Cc2ccc(-c3ccccc3)cc2)c(OC)c1	?	2%	41%[activator]	0%	-5.7%	-9%	19%	28%
CSc1sc(-c2ccnc(SCCS(C)(=O)=O)n2)c(-c2ccccc2)c1C#N	1%	.	-24%	2%	.	4%	?	19%[46.1 µM]
Cc1nc2c(c(=O)[nH]1)C(c1ccc([N+](=O)[O-])cc1)c1c(c3ccccc3oc1=O)O2 (stereo unspecified)	-2%	.	-2%	1%	.	1%	.	.
Nc1ccc(-c2c3ccc(=O)cc-3oc3cc(O)ccc23)cc1C(=O)O	1%	.	4%	4%	.	-6%	3%[46.1 µM]	17%[46.1 µM]
CCOc1cc(C(=O)Nc2ccc(S(=O)(=O)N3CCCCC3)cc2)ccc1OCC(=O)N1CCOCC1	-2%	.	?	.	.	-2%	-18%	-12%
CCCSc1cc(N2CCN(C)CC2)nc(-c2ccc(OC)cc2)n1	-20%	7%	-5%	-2%	-0.4%	-1%	?	?
Cc1ccc2cc(CN(Cc3nnnn3Cc3ccco3)CC3CCCO3)c(=O)[nH]c2c1C (stereo unspecified)	-1%	16%	4%	-7%	-9.4%	9%	-17%	?
Cc1cc(C)cc(-n2ccnc2SCC(=O)Nc2ccccc2F)c1	.	4%	?	.	-5.8%	.	.	-22%[46.1 µM]
Cc1ccc(Cl)cc1NC(=O)c1ocnc1C	6%	-1%	14%	-5%	1.0%	-8%	6%	13%
OCCNCC1(O)C2CC3CC(C2)CC1C3 (stereo unspecified)	1%	-4%	-15%	-5%	-3.2%	12%	-6%	-13%
COc1ccc(CNC(=O)CN2C(=O)COc3ccc(S(=O)(=O)N4CCOCC4)cc32)cc1	4%	2%	22%&16%	0%	0.9%	9%	-2%&-2%[46.1 µM]	3%&-3%[46.1 µM]

Compounds were not picked by outcome; 4.7% or so of the library scored in one or more.
